T cruzi repl – inhibitors of intracellular T. cruzi growth, primary screen, luminescence, NIH3T3 host cells. T. cruzi beta-gal in NIH3T3, 90 h. inhibition, % (concentration not given with the values). hit rate 1.4% among 300,000;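 active means mean inhibition across valid replicates above about 55%, limit read from the data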;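 further: signal also drops with host cell toxicity which is not excluded here; 0% = plate median of DMSO wells and 100% = zero luminescence signal; higher percent means less beta-gal luminescence so fewer parasites; stock transfer was 50 nL into about 50 µL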
Beta cell apopt – inhibitors of cytokine-induced beta cell apoptosis, primary screen, luminescence; INS-1E cytokine-induced death, ATP luminescence, 48 h; percent of positive-control rescue, neutral wells zero; protection from apoptosis, % (concentration not given with the values); hit rate 0.8% among 300,000; AID 435005, 2010;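 active means all replicates at 75% or more, or half of them and the mean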;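 further: 0% = cytokine-treated negative control wells and 100% = positive control rescue; higher means more ATP so stronger rescue from cytokine killing; wells of about 40 µL received 100 nL stock; the first replicate is given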
B2AR ag – beta2AR agonists driving receptor internalization, primary screen, cell-based, FAP fluorogen, flow cytometry; Beta-2 adrenergic receptor (Homo sapiens), P07550; Am2.2-beta2AR cells; reference of the scale not given here; response, % (no concentration beside the values); hit rate 0.43% among 340,000; AID 504454, 2011;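 active means response above a set limit, near 3 SD of response in nonfluorescent compounds, cut at about 42% in these data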;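 further: stock transfer was 100 nL into about 11 µL; a reference agonist was the positive control; negative values mostly stem from fluorescent compounds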
Target sequence (P07550 whole entry, looked up): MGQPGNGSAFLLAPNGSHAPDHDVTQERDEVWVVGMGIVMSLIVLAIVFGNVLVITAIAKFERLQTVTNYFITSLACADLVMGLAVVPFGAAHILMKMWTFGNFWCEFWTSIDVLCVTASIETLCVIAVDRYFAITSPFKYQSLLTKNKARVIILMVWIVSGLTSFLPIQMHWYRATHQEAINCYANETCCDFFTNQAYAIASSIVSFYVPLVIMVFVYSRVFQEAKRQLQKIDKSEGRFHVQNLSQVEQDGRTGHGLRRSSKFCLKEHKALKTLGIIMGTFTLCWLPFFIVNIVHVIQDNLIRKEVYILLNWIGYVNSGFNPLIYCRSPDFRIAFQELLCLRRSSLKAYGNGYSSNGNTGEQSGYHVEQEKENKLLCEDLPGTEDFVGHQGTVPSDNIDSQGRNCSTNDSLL
LANA-H2B inh – blockers of LANA interaction with H2A/H2B – biochemical, FP readout, HTS, primary screen; hit rate 0.6% among 320,000; inhibition, % (test concentration not listed); Protein LANA1 (Human herpesvirus 8 type P (isolate GK18)), Q9QR71; cell-free LANA-H2A/H2B peptide, fluorescence polarization; in the data active means inhibition mostly above about 10%, no sharp cut-off; inactive means mostly below about 6.7%;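 further: stock transfer was 7.5 nL into about 10 µL; 0% = median of vehicle wells and 100% = median of positive control wells; one replicate is shown; the record names a cut of 25% in any replicate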
ALR H2O2 inh – inhibitors of human ALR sulfhydryl oxidase, primary screen, biochemical, H2O2 detection, HRP-luminol luminescence, single point. FAD-linked sulfhydryl oxidase ALR (Homo sapiens), P55789. hit rate 3.8% among 290,000. AID 485317, 2010. inhibition, % (no concentration beside the values). purified ALR, DTT oxidation;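 active means mean and each replicate at 75% or more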;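 further: stock transfer was 7.5 nL into about 7.5 µL; 0% = neutral wells and 100% = wells with inactivated enzyme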
Target sequence (P55789 whole entry, looked up): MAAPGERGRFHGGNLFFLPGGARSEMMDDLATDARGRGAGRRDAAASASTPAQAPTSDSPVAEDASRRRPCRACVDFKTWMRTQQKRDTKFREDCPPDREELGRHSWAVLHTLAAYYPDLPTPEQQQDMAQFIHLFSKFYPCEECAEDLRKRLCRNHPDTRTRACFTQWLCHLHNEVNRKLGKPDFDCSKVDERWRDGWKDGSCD
rRNA inh HTS – reduced GFP signal of wild-type E. coli, primary screen, bacterial rRNA inhibitor project, GFP/RFP fluorescence, OD600, single point; E. coli WT GFP vs humanized-ribosome RFP mutants, 24 h; stronger effect = lower value; DMSO median 0, no signal -100; GFP signal change (wild-type ribosome), % (test concentration not listed); hit rate 1.6% among 350,000; AID 720706, 2013;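 active means significant combined selectivity score with lowered wild-type GFP, culture density cut under 30%, mutant RFP and density less affected; inactive means any of these conditions unmet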; further: one replicate is shown; some compounds called inactive have numbers as strong as hits
A1 inh – caspase 3/7 activation in MEF A1-2A-BIM cells, primary screen, A1 inhibitor project, cell-based, luminescence, HTS; Caspase-Glo 3/7 luminescence, 3 h; percent of clofoctol response, vehicle zero; caspase activation, % (test concentration not listed); hit rate 0.066% among 330,000;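 active means over half of replicate activation scores above 10%, or exactly half above 10 with the replicate mean above 10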;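 further: wells of about 30 µL received 50 nL stock; many hits fall short of the cut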
Calb FLC – C. albicans growth inhibition with fluconazole, primary screen, CaCi-2 strain, Alamar Blue fluorescence; C. albicans CaCi-2 (fluconazole-resistant clinical isolate) + fluconazole, 48 h; growth inhibition, % (test concentration not listed); hit rate 0.57% among 300,000; AID 1979, 2009;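 active means most replicates above 75%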;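 further: all wells also contain fluconazole at 8 µg/ml as a sub-toxic cotreatment; 0% = median of DMSO wells and 100% = median of geldanamycin control wells; wells of about 8 µL received 7.5 nL stock; the first replicate is given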
rRNA inh HTS OD600 – also measured in rRNA inh HTS; calls as there; OD600 change, %; measured here: OD600 growth;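 optical density of the mix in the first replicate; 0 = DMSO median and -100 = no signal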
rRNA inh HTS RFP – recorded beside rRNA inh HTS, whose call it bears; RFP signal change, %; measured here: RFP humanized mutant strains;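 first replicate; 0 = DMSO median and -100 = no signal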
The depositor's hits bear a star; x = not tested or not shown.

SMILES	T cruzi repl	Beta cell apopt	B2AR ag	LANA-H2B inh	ALR H2O2 inh	rRNA inh HTS	rRNA inh HTS OD600	rRNA inh HTS RFP	A1 inh	Calb FLC
C=CCc1c(C)nc(SCC(N)=O)[nH]c1=O	-4.9	-2.4	-1.1	2.1	-3.1	4.9	-0.1	-7.5	0.6	-15.1
CN(C)c1ccc(C2C=C(c3ccc(Cl)cc3OC(F)F)Nc3ncnn32)cc1 (centres undefined)	27.4	11.3	-25.9	2.5	10.5	x	x	x	0.5	-16.5
CCOc1cc(C#N)ccc1OCC(=O)N1CCc2ccccc2C1	-2.2	1.3	-2.0	1.8	-17.6	-13.0	-13.1	0.2	1.5	-2.5
Nc1nnnn1/N=C/c1ccccc1OCc1ccc(Cl)cc1Cl	24.5	0.4	5.2	1.7	-0.7	3.8	6.5	-5.1	-0.3	21.4
CCOc1cc(CN2CCCC(N3CCc4ccccc4C3)C2)ccc1O (centres undefined)	52.6	x	-6.0	1.8	17.6	10.2	9.4	-0.2	-0.2	10.9
O=C1NC(=Nc2ccccc2)CS1	-7.7	-1.5	0.9	-2.4	-5.3	0.1	6.0	-1.8	0.1	-6.4
O=C(Nc1cccc(OC(F)(F)F)c1)c1ccc(Br)o1	-8.4	x	0.4	3.2	-17.2	x	x	x	-0.6	-7.1
CCCCn1c(N)c(N(CC(C)C)C(=O)CN2C(=O)C3CCCCC3C2=O)c(=O)[nH]c1=O (centres undefined)	20.9	1.6	2.6	2.4	0.9	3.5	0.7	-0.8	0.0	-6.8
O=C(c1ccco1)n1nc(-c2ccccc2)nc1SCc1ccccc1	3.3	-4.2	-4.1	2.5	0.9	x	x	x	-0.5	-11.4
Cn1c(=O)oc2cc(S(=O)(=O)N3CCC(C(=O)NCc4cccs4)CC3)ccc21	-18.1	-0.9	0.3	-2.5	-3.4	10.5	10.8	2.6	0.4	-2.0
CC(=O)Nc1ccc(S(=O)(=O)N2CCN(C(=O)N3CCCC3)CC2)cc1	-2.1	-2.2	8.6	-5.3	1.2	-1.6	-10.0	-0.2	-0.4	22.2
c1ccc(N2CCN(c3ncnc4c3oc3ccccc34)CC2)cc1	0.2	-4.7	18.1	1.6	-3.1	x	x	x	0.0	7.8
COc1ccc(N(C(=O)c2ccccc2C)S(=O)(=O)c2cccs2)cc1	-15.4	13.1	29.5	2.4	x	x	x	x	-0.4	3.7
CN1CCN(C(=O)CCCOc2cc(=O)n(C)c3ccccc23)CC1	2.6	2.9	-1.4	-0.2	x	x	x	x	0.6	-7.6
COCCNC(=O)CSc1nnc(CCCN2C(=O)c3cccc4cccc(c34)C2=O)n1-c1ccccc1	2.7	-2.8	-4.2	1.7	-5.7	x	x	x	0.4	-7.1
COCCn1c(C)cc(/C=C2/NC(=O)N(c3ccc(Cl)cc3)C2=O)c1C	-2.8	1.9	1.6	3.5	-0.3	13.6	20.4	3.0	-0.5	23.6
CSc1nnc(-c2sc3cc(C(F)(F)F)cnc3c2-c2ccccn2)n1C	-16.0	-8.4	-11.3	-8.3	-6.1	x	x	x	0.1	-6.1
CCCS(=O)(=O)N1CCN(c2cc3c(cc2[N+](=O)[O-])n(C)c(=O)n3C)CC1	-9.4	x	-6.5	-0.6	-11.2	-15.3	-21.8	-4.0	0.9	9.9
Cc1ccc(C)c2[nH]c(=O)c(C(c3nnnn3Cc3ccco3)N3CCc4ccccc4C3)cc12 (centres undefined)	-5.1	-4.5	11.4	0.4	5.7	x	x	x	0.0	2.6
CCCCCCCCCCCCN1C/C(=C\C(=O)OCC)c2cc(C(F)(F)F)ccc2S1(=O)=O	33.9	6.9	12.2	-3.9	-0.4	8.3	9.8	-4.0	-0.6	4.0
COC(=O)Cc1nnc(Nc2cccc(C)c2)c2ccccc12	1.3	0.4	5.2	4.5	1.4	6.7	3.4	11.7	0.4	-5.8
Cc1cccc(N(Cc2cc(=O)[nH]c3ccccc23)C(=O)CCl)c1	15.9	-16.0	0.2	-6.0	-4.9	6.8	16.6	-1.5	0.3	6.0
Cc1ccc(C(=O)C2=C(O)C(=O)N(c3ncccn3)C2c2ccccc2F)o1 (centres undefined)	-6.8	-4.6	-3.2	-4.5	x	3.1	-3.0	0.8	0.7	39.2
O=C(COC(=O)c1ccc(Br)o1)NCCCc1ccccc1	-10.2	x	-1.2	4.4	-6.2	x	x	x	0.3	4.9
CCn1c(=O)cc(SCC(=O)N2CCN(C)CC2)c2ccccc21	-1.6	0.6	-0.6	-3.1	-13.9	x	x	x	-1.0	-16.3
Clc1ccc(SCCOCCN2CCOCC2)cc1	57.5*	-0.1	-1.3	0.0	-5.5	4.9	6.3	-0.5	-0.2	-17.6
C/C(=N\N1CCN(Cc2ccccc2Cl)CC1)c1ccc([N+](=O)[O-])cc1	-9.2	6.4	-2.7	1.4	-8.4	-5.4	-9.8	-1.4	1.4	1.4
O=c1c(Cc2ccccc2)c(O)ccn1C1CCCCCCC1	0.3	-5.3	-1.3	2.0	8.7	-38.6	-52.6	-7.5	0.2	1.5
O=C(C1CCN(S(=O)(=O)c2cccc3cccnc23)CC1)N1CCN(C2CCCC2)CC1	3.5	-4.6	-8.0	3.6	82.2*	2.3	-1.1	5.2	-0.3	-3.2
O=C(NC1CCCCC1)N1CCCC(CNS(=O)(=O)Cc2ccccc2)C1 (centres undefined)	6.8	-2.7	-4.7	-6.7	2.5	2.6	-6.6	-5.5	0.2	-2.0
S=c1[nH]nc(Nc2cccc(Cl)c2)s1	-0.2	-1.1	9.1	-0.3	98.9*	7.0	10.1	-2.5	-1.7	-0.9
Cc1cccc2[nH]c3c(N4CCC5(CC4)OCCO5)ncnc3c12	-21.2	-2.5	3.9	5.7	69.1	x	x	x	1.2	8.2
N#CC1=C(S)N(c2ccccc2)C(c2ccco2)NC1=O (centres undefined)	-8.8	-5.2	-6.7	1.9	-2.7	7.6	2.0	0.6	0.6	32.1
O=C(CN1C(=O)c2cccnc2Oc2ccc(Cl)cc21)NC1CCCCCC1	9.0	1.0	-7.0	3.4	-1.5	3.5	0.2	-4.4	0.8	6.3
CN(CC(=O)O)S(=O)(=O)/C=C/c1ccccc1	3.2	-5.1	-0.2	-5.9	-2.6	18.5	20.4	0.6	0.9	-4.4
O=S(=O)(NCc1ccccc1)c1ccc(Br)s1	-8.1	x	0.1	-1.4	-4.6	-23.2	-29.5	-3.4	0.0	-3.6

Quoted at random: 2 entries already listed, in no set order.
SMILES	T cruzi repl	Beta cell apopt	B2AR ag	LANA-H2B inh	ALR H2O2 inh	rRNA inh HTS	rRNA inh HTS OD600	rRNA inh HTS RFP	A1 inh	Calb FLC
O=C(CN1C(=O)c2cccnc2Oc2ccc(Cl)cc21)NC1CCCCCC1	9.0	1.0	-7.0	3.4	-1.5	3.5	0.2	-4.4	0.8	6.3
C/C(=N\N1CCN(Cc2ccccc2Cl)CC1)c1ccc([N+](=O)[O-])cc1	-9.2	6.4	-2.7	1.4	-8.4	-5.4	-9.8	-1.4	1.4	1.4

Continued:
SMILES	T cruzi repl	Beta cell apopt	B2AR ag	LANA-H2B inh	ALR H2O2 inh	rRNA inh HTS	rRNA inh HTS OD600	rRNA inh HTS RFP	A1 inh	Calb FLC
CN(C)NC(=O)c1ccsc1NC(=O)c1ccc(S(=O)(=O)N2CCCC2)cc1	-0.9	6.1	1.6	1.7	86.8*	-6.1	-4.1	-2.0	-0.6	4.6
CC(C)(C)c1ccc(-c2nc(N)nc(N)n2)cc1	-17.5	-4.3	-0.6	-0.9	-3.8	11.0	12.1	1.4	-0.5	-6.6
CCCOc1ccc(/C=N\NC(=O)CCc2n[nH]c(=O)[nH]c2=O)cc1OC	-9.6	1.2	2.6	-5.1	-1.2	x	x	x	-0.3	-13.0
COc1ccc(NS(=O)(=O)c2cccc(C(=O)NCCCn3ccnc3)c2)cc1	4.7	-3.8	-9.0	-1.5	x	3.1	5.0	0.7	-0.3	0.2
CCc1cc(-c2nnc(SCC(=O)NC3CC3)n2C)cs1	-16.3	4.4	-9.7	3.1	-6.5	4.9	13.4	-3.3	0.7	0.2
COc1cc(OC)c2ccc(=O)oc2c1C(CCN1CCCCC1)c1ccc(N(C)C)cc1 (centres undefined)	3.4	0.6	-2.3	0.4	98.6*	x	x	x	0.2	4.0
COc1ccc(-c2onc(C)c2C)cc1S(=O)(=O)NCCc1ccco1	2.0	-1.4	-1.2	0.2	-9.3	-16.9	-16.8	-0.2	0.4	16.7
CCc1ccc(NC2=NCC(c3ccccc3)S2)cc1 (centres undefined)	19.9	10.3	66.6*	1.6	x	-53.3	-83.3	-15.4	-0.2	-26.5
Brc1ccc(-c2cnc(-c3cccs3)o2)cc1	-70.6	1.1	1.5	0.5	-2.6	x	x	x	-3.0	-3.0
COc1cc(Cl)ccc1OCc1cc(C(=O)N2CCCC(OC)C2)no1 (centres undefined)	-6.9	x	-5.8	-1.7	-7.3	-1.0	2.3	-1.4	-3.2	-1.7
CCC(C)Nc1nc(OCC(F)(F)F)nc(OCC(F)(F)F)n1 (centres undefined)	11.8	-0.3	-3.4	2.8	-23.7	x	x	x	-0.5	19.3
CCCCCC1CC(/C(C)=N/NC(N)=O)OC1=O (centres undefined)	-15.8	-3.8	-0.3	3.2	-0.4	x	x	x	0.4	-1.8
Cc1ccc2c(c1)cc(CN(Cc1ccco1)C(=O)COc1ccccc1)c1nnnn12	25.1	8.2	-10.2	3.4	x	x	x	x	2.1	1.2
Cc1cc2nc(N3CCN(C(=O)c4cccs4)CC3)sc2cc1C	13.6	1.3	7.6	-3.3	-8.1	-0.8	8.4	-3.6	1.3	0.4
CCCCCC(=O)NNC(=O)Cc1ccc([N+](=O)[O-])cc1	-4.4	-15.0	5.4	1.7	-13.5	6.6	9.6	-2.8	1.3	-7.3
COc1ccc(-c2cc(C(=O)Nc3ccc(C)cc3)no2)cc1	-24.0	0.0	6.6	11.4	x	x	x	x	1.4	24.6
COc1ccc(S(=O)(=O)N2CCCC2)c2ccccc12	-0.1	-1.6	-2.5	-4.8	14.2	13.9	9.8	2.9	0.6	-7.9
COc1ccc(C(C(=O)NC2CCCCC2)N(C(=O)c2snc(C(N)=O)c2N)c2ccc(OC)cc2OC)cc1 (centres undefined)	20.0	-14.5	-12.8	2.0	x	8.7	1.3	2.4	0.4	29.5
O=C(NCc1ccncc1)C(=O)NCC(c1ccccc1)c1ccccc1	1.6	1.8	x	-2.1	-1.2	-14.6	-17.1	4.8	-0.1	19.7
CCCn1cc(SCC(=O)NCc2ccco2)c2ccccc21	6.8	-2.5	-3.0	3.0	26.7	x	x	x	0.1	2.1
O=C(CSc1nnc(Cn2cnc3ccccc32)o1)Nc1cccc2ccccc12	-21.0	0.2	0.6	-8.0	99.3*	x	x	x	1.1	-6.1
O=C(CCN1CCOCC1)NNC(=O)c1ccc([N+](=O)[O-])cc1[N+](=O)[O-]	x	2.4	-2.0	-0.3	-42.8	26.5	19.1	0.5	1.7	x

The list is partial; the hit share may differ from the screen's.
